# Mtb H37Rv – Confirmatory growth inhibition assay against Mycobacterium tuberculosis H37Rv, potency (AID 1949) | most inactive calls were filed without a number and no value below 0 was filed | inhibition, % at 10 µg/mL, or IC50 in µg/mL where a hit was titrated | 1.6% of 100,000 active;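 active = confirmed in a dose series; inconclusive = about 50% or more but not retested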;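 also: bacteria grown 7 days with compound before Alamar blue readout; 0% = untreated bacteria and 100% = reference antibiotic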
# The depositor's hits bear a star; i = inactive; ? = inconclusive. Not all compounds are listed; count on the stated rates, not on these rows.
Compound | Mtb H37Rv
COc1ccc2c(c1)CCC1Sc3ccccc3N=C21 (stereo not drawn) | 1.43µg/mL*
COC(=O)c1sc(NC(=S)NCc2cccnc2)c(C(=O)OC)c1C | i
CCN(CC)CCNCC#CCOc1ccc(OC)cc1 | i
COc1ccccc1N(CC(=O)Nc1ccccc1-c1ccccc1)S(=O)(=O)c1ccccc1 | i
CC(=O)Nc1ccc(S(=O)(=O)N2CCN(C(=O)c3ccc(F)cc3)CC2)cc1 | i
CCOC(=O)c1sc2ncn(Cc3ccc(Cl)c(Cl)c3)c(=O)c2c1C | i
COCCCn1c(-c2ccc(F)cc2)n[nH]c1=S | i
COC(=O)c1cc(NC(=S)NC(=O)C(C)Oc2ccc(Cl)cc2Cl)cc(C(=O)OC)c1 (stereo not drawn) | i
O=C(Oc1ccc2c(c1)CCC2)N1CCOCC1 | 0.3%
CCC(=O)OC1(c2ccccc2)CCN(C)CC1C (stereo not drawn) | i
O=C(NC1CC1)c1cccc2ccccc12 | i
CCCCNC(=O)c1ccccc1NS(=O)(=O)c1ccc(NC(C)=O)cc1 | 0.3%
CCC(=O)Nc1ccc2nc(SCC(=O)NCc3ccc(OC)cc3)sc2c1 | 7.8%
Cc1cc2ncn(-c3ncnc4scc(-c5ccccc5)c34)c2cc1C | 0.8%
COC(=O)COc1ccc(S(=O)(=O)Nc2ccc(C(F)(F)F)cc2)cc1 | 49.2%
CCC(=O)NC(=S)Nc1ccc(NC(=S)NC(=O)c2cc(Br)ccc2OC)cc1 | 7.6%
COCC(=O)Nc1cc(OC)c(OC)c(OC)c1 | i
Cn1c(SCc2ccc(Cl)cc2)nnc1-c1ccccc1 | i
O=C(NNC(=S)NCc1ccco1)c1cccs1 | i
CCC(Oc1ccccc1)C(=O)Nc1cccc([N+](=O)[O-])c1C (stereo not drawn) | 1.1%
Cc1cc(NC(=O)c2ccc3ccccc3c2)c(C)cc1I | i
COC(=O)c1c(N2C(=O)CC(Sc3ncccc3C(=O)O)C2=O)sc2c1CCCC2 (stereo not drawn) | i
COc1nc(NS(=O)(=O)c2ccc(N)cc2)nc(N(C)C)n1 | i
COc1cc(C2C3=C(CC(C)(C)CC3=O)Nc3ncnn32)cc(OC)c1OC (stereo not drawn) | i
Cc1noc(C)c1C(=O)Nc1c(F)cc(F)cc1Br | 0.2%
COC(=O)Cc1c(C)c2ccc(OCc3ccc(Cl)cc3Cl)c(C)c2oc1=O | i
O=C(Cc1cccs1)NC(c1ccccc1)c1ccccc1 | 4.2%
Cc1ccc(N2C(=O)/C(=C/c3ccc(-c4cccc(C(=O)O)c4)o3)SC2=S)c(C)c1 | 2.3%
O=C(NCCN1CCOCC1)C1CCN(Cc2ccccc2O)CC1 | i
c1coc(-c2nnc3n2C2(CCCC2)Cc2ccccc2-3)c1 | i
Cc1c(NC(=O)CCC2CCCC2)c(=O)n(-c2ccccc2)n1C | i
O=C(CSc1nnc(-c2ccco2)o1)c1ccc(Oc2ccccc2)cc1 | ?
COc1ccccc1CNC(=O)c1ccoc1C | i
CCOC(=O)c1ccc(NC(=O)/C=C/c2ccc([N+](=O)[O-])s2)cc1 | 0.28µg/mL*
COc1ccc(C(=O)Nc2c(Cl)cc(Cl)cc2C(=O)Nc2ccc(Br)cc2)cc1 | 6.4%
CC(C)CNC(=O)c1ccc(COc2ccccc2Br)o1 | 4.6%
Cc1ccc(C)c(NS(=O)(=O)c2ccc(NC(=O)c3ccc(N(C)S(=O)(=O)c4ccccc4)cc3)cc2)c1 | 21.0%
OCC1CCCN(C(=S)Nc2ccc(F)cc2)C1 (stereo not drawn) | i
CCOC(=O)C1CCN(C(=O)CCCN2C(=O)c3ccccc3C2=O)CC1 | i
COc1ccc(Cl)cc1NC(=O)c1cc2nc(-c3ccco3)cc(C(F)(F)F)n2n1 | i
COc1cc(OC)c(OC)cc1CN1CCN(C(=O)c2cccc3ccccc23)CC1 | i
COc1ccccc1N(Cc1cc2cc(C)ccc2[nH]c1=O)C(C)=O | 4.8%
CCOC(=O)CSc1nc(C)c(C(=O)OCC)s1 | ?
CC(=O)OCCNc1nc(-c2ccccc2)nc2ccccc12 | i
COc1ccc(N(CC(=O)N2CCN(c3ccccc3)CC2)S(C)(=O)=O)cc1 | i
Cc1ccc(CNCCCN2CCOCC2)cc1 | 2.9%
CCOc1ccc(NC(=O)C(C)Oc2ccccc2C(=O)Nc2cccc(Cl)c2Cl)cc1 (stereo not drawn) | 9.7%
CNC(=O)CSc1nc2cc(C)c(C)cc2[nH]1 | i
COc1ccc(CCNC(=O)c2ccccc2NC(=O)c2ccc(Cl)cc2Cl)cc1OC | i
CCc1ccc(NC(=O)CN(C)S(=O)(=O)c2ccc3ccccc3c2)cc1 | 0.1%
CCc1cc(=O)oc2cc(OC(=O)c3ccc(OC)cc3)ccc12 | i
CCOC(=O)CSc1nc(C)[nH]c1[N+](=O)[O-] | i
CCOC(=O)c1sc2ncn(Cc3c(Cl)cccc3Cl)c(=O)c2c1C | 6.8%
Cc1cc(CO)c(C)n1-c1ccc2c(c1)OCO2 | i
COC(=O)c1sc2nc(-c3ccncc3)cc(C(F)(F)F)c2c1N | i
CC(=O)Nc1nc2ccccc2n1CCOc1ccccc1 | 2.94µg/mL*
COc1ccc(OC)c(NC(=O)CSc2nnc(NC(=O)CCc3ccccc3)s2)c1 | i
COc1ccccc1NC(=O)c1c(NC(=O)Cc2ccccc2)sc2c1CCCC2 | i
Cc1ccc(NC(=O)c2ccc(N(C)S(C)(=O)=O)cc2)c(C)c1 | i
COc1ccc([N+](=O)[O-])cc1NC(=O)CN(c1ccccc1F)S(=O)(=O)c1ccccc1 | i

# Next part.
Compound | Mtb H37Rv
O=C(c1cccc(F)c1)N1CCN(C2CCN(Cc3ccccc3)CC2)CC1 | i
S=c1[nH]nc(CSc2nc3ccccc3s2)o1 | i
COc1ccc(S(=O)(=O)Nc2cccnc2)cc1C | i
Cc1ccc(NS(=O)(=O)Cc2ccccc2)cc1Cl | i
O=Cc1ccc(OC(=O)c2ccccc2F)c(Br)c1 | 0.3%
CCOc1cc(S(=O)(=O)n2ccnc2)ccc1Br | i
Cc1ccc(N2C(=O)C(Cl)=C(Nc3ccc(F)cc3)C2=O)c(C)c1 | 3.4%
O=C(NCCN1CCNCC1)c1ccccn1 | i
O=C(O)CN(C1CCCCC1)S(=O)(=O)c1ccc(Cl)cc1 | i
O=C1CC(c2cc3c(cc2Br)OCO3)c2cc3c(cc2N1)CCC3 (stereo not drawn) | i
CC1CCc2c(sc3ncn(Cc4ccccc4F)c(=O)c23)C1 (stereo not drawn) | i
CCNC(=O)C12CCC(C)(C(=O)C1)C2(C)C (stereo not drawn) | i
CCOC(=O)C1=C(C)NC(=O)NC1c1cn(-c2ccccc2)nc1-c1ccc(C)o1 (stereo not drawn) | i
O=c1oc2ccc3ccccc3c2cc1-c1csc(NC2CCCCC2)n1 | 0.4%
CCOC(=O)c1cc(CC)sc1NC(=O)C1CC(=O)N(c2ccc(OC)cc2)C1 (stereo not drawn) | i
O=C(COc1ccc(S(=O)(=O)NCCc2ccccc2)cc1)Nc1ccc(F)c(Cl)c1 | i
CCOc1ccc(NC(=O)c2cc(OC)c(OC)cc2OC)cc1 | 4.1%
CCN(CC)S(=O)(=O)c1cc(C(C)(C)C)ccc1OC | i
CCn1c(SCC(=O)c2ccc(OC)cc2)nnc1-c1ccco1 | i
CCn1c(CNC(=O)Cc2ccc(OC)cc2)nnc1SCC(=O)Nc1cc(C(F)(F)F)ccc1Cl | i
N#CC1=C(S)NC(=O)CC1c1ccc(Br)cc1 (stereo not drawn) | i
O=C(Nc1ccc([N+](=O)[O-])cc1Cl)C1CC1 | i
CCOC(=O)c1c(NC(=O)CSc2ccccn2)sc(C)c1C | i
COc1ccc(S(=O)(=O)N(C)c2ccc(C(=O)Nc3ccccc3Br)cc2)cc1 | i
Cc1ccc(Cl)cc1N1CCN(C2CC(=O)N(c3cccc(F)c3)C2=O)CC1 (stereo not drawn) | i
CN(C)CCOCCOc1ccccc1Br | 2.2%
COc1ccc(NC(=O)CSc2nc3ccc(NC(=O)c4ccccc4Br)cc3s2)c([N+](=O)[O-])c1 | i
Cc1ccc(-c2nc3ncccc3o2)cc1NC(=O)c1ccc(-c2ccc(Br)cc2)o1 | 1.6%
CCOC(=O)c1cc(-c2ccccc2)sc1NC(=S)NC(C)c1ccncc1 (stereo not drawn) | 1.47µg/mL*
NC(=O)c1ccccc1NC(=S)NC(=O)c1cc(Cl)ccc1Cl | i

# Exported as labelled records: entries from further up.
> Cc1ccc(Cl)cc1N1CCN(C2CC(=O)N(c3cccc(F)c3)C2=O)CC1 (stereo not drawn)
  Mtb H37Rv: i

> CN(C)CCOCCOc1ccccc1Br
  Mtb H37Rv: 2.2%

> COc1ccc(NC(=O)CSc2nc3ccc(NC(=O)c4ccccc4Br)cc3s2)c([N+](=O)[O-])c1
  Mtb H37Rv: i

# (listing goes on)
Compound | Mtb H37Rv
O=C(CCC(=O)N1CCN(c2ccccc2)CC1)N1CCN(c2ccccc2)CC1 | i
CC1=C(C(=O)OC2CCCCC2)C(c2ccco2)C2=C(CC(C)(C)CC2=O)N1 (stereo not drawn) | i
CN(c1ccccc1)S(=O)(=O)c1cccc2ccccc12 | i
Cc1ccc(-c2n[nH]c(=S)n2N=Cc2cccc(OCc3ccccc3)c2)cc1 | i
CN(C)S(=O)(=O)c1ccc(NC(=O)c2sc3ccccc3c2Cl)cc1 | 3.0%
NC(=O)COc1ccc(/C=C/c2[nH]c(=O)[nH]c(=O)c2[N+](=O)[O-])cc1 | i
Cc1cccc(-c2cc(C(=O)Nc3ccc4c(c3)OCO4)c3ccccc3n2)c1 | i
C=CCOc1c(CNc2ncn[nH]2)cccc1OCC | i
COc1cc(C(=O)NC2(C(F)(F)F)C(=O)N(Cc3ccco3)C3=C2C(=O)CC(C)(C)C3)cc(OC)c1OC (stereo not drawn) | i
COc1ccc(/C=N/N=C2/NC(=O)C(Cc3ccc(Br)cc3)S2)cc1 (stereo not drawn) | i
O=C(c1cccs1)N1CCN(S(=O)(=O)Cc2ccccc2)CC1 | i
Cc1ccc2c(c1)CCCN2C(=O)c1c(C)noc1C | i
O=C(COC(=O)C1CCN(S(=O)(=O)c2cccc3cccnc23)CC1)c1ccc(F)cc1 | i
Cc1cc(OCC(=O)Nc2cc(C(F)(F)F)ccc2Cl)cc(C)c1Br | i
CCOc1ccc(C(=O)Nc2ccc(S(=O)(=O)N3CCCCC3)cc2)cc1 | i
CCC(=O)c1cc2c(cc1N)OCCO2 | i
CC1(C)CC(Cc2nc(=S)[nH][nH]2)C(=O)O1 (stereo not drawn) | 2.8%
O=C(O)C1C2C=CC(C2)C1C(=O)Nc1ccc(C(=O)N2CCCCC2)cc1 (stereo not drawn) | 5.4%
COc1ccc(/C=C2\C(=O)NC(=O)N(c3ccccc3C)C2=O)cc1O | i
S=C(NNC(=S)Nc1cccc2ccccc12)Nc1ccc(Cl)cc1 | i
CS(=O)(=O)N(CCc1ccccc1)CC(=O)Nc1ccc2c(c1)OCCO2 | i
COC(=O)c1cc(OC(=O)C(c2ccccc2)c2ccccc2)n(C)n1 | 1.6%
CC1(C(=O)c2ccc(Cl)cc2)C2c3ccccc3OC(=O)C21C(=O)N1CCCCC1 (stereo not drawn) | i
CC(=O)c1c(C)n([O-])c2cc(Cl)c(Cl)cc2[n+]1=O | 5.48µg/mL*
FC(F)(F)c1cccc(OCc2nn[nH]n2)c1 | i
CCc1cccc(C)c1NC(=O)CN(c1cc(Cl)ccc1OC)S(=O)(=O)c1ccc(OC)c(OC)c1 | 44.8%
O=C(CSc1ccccc1)NCc1ccccc1 | i
C=CCNC(=S)NNS(=O)(=O)c1ccc(F)cc1 | i
Cc1cccc(NC(=O)C(=O)NCc2ccncc2)c1C | i
c1ccc(-c2oc3ncnc(NC4CCCC4)c3c2-c2ccccc2)cc1 | i

# An excerpt from above in order of length of the SMILES, low to high.
Compound | Mtb H37Rv
O=C(CSc1ccccc1)NCc1ccccc1 | i
Cc1ccc2c(c1)CCCN2C(=O)c1c(C)noc1C | i
COC(=O)c1cc(OC(=O)C(c2ccccc2)c2ccccc2)n(C)n1 | 1.6%
COc1ccc(/C=C2\C(=O)NC(=O)N(c3ccccc3C)C2=O)cc1O | i

# The list goes on:
Compound | Mtb H37Rv
CCCCOc1cccc(C(=O)Nc2sc3c(c2C(N)=O)CCCC3)c1 | i
CC1CCc2c(sc3c2c2nncn2c2nncn32)C1 (stereo not drawn) | 18.9%
O=C(Nc1ccc2c(c1)OCCO2)NC1CCCCC1 | i
CC12CC3CC(C)(C1)CC(C(=O)Nc1nc4ccccc4s1)(C3)C2 | 0.24µg/mL*
Cc1cc(OCc2cccc(Br)c2)c2c3c(c(=O)oc2c1)CCC3 | i
COC(=O)c1cc(NC(=O)C2CC2c2ccccc2)cc(C(=O)OC)c1 (stereo not drawn) | i
COc1ccc(OCC(O)CNC2CCCC2)cc1 (stereo not drawn) | i
COC(=O)c1c(NC(=O)Nc2ccccc2)sc(C)c1C | 3.9%
CNC(=O)CN(c1cccc(C)c1C)S(=O)(=O)c1ccc(C)cc1 | i
COC(=O)c1cccc(NS(=O)(=O)c2ccccc2[N+](=O)[O-])c1C | i
Cc1ccc(NC(=O)C(=O)NCC2(c3ccccc3)CCCC2)cc1 | i
COc1ccc(NC(=O)CCN2C(=O)c3ccccc3S2(=O)=O)cc1 | i
CNc1cc(N2CCN(C(=O)c3ccccc3Br)CC2)ccc1[N+](=O)[O-] | i
Nc1ccc(N2CCN(C(=O)c3ccccc3)CC2)c(Cl)c1 | i
CC(NS(=O)(=O)c1ccc(Cl)cc1)C(=O)Nc1cccc([N+](=O)[O-])c1 (stereo not drawn) | 3.6%
O=C(NCCc1nc2ccccc2[nH]1)c1ccc(Cl)c(Cl)c1 | i

# Compound activity (PubChem)
